HSD17B inhib: HSD17B dehydrogenase inhibition; recombinant HSD17B10, NADH fluorescence kinetic; many of its hits are not listed in these tables; Potency, µM (highest dose often 57.1 µM), for the others: at the top dose activity change, negative = inhibition, usual class: inhibitors; hit rate 7.6% among 75,000; active = well fitted inhibition curve with a large enough effect; inconclusive = small, poorly fitted or top-dose-only effect; inactive = no such curve, though single readings can be large or run the other way;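 also: the protocol describes HADH2 (HSD17B10) and not the HSD17B4 of the title; nearly all actives have a fitted effect of over 70% in size; most hits overshoot -100% by far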
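Enzyme plus compound, 15 min room temperature; substrate mix added (NAD+ 1 mM, beta-hydroxybutyryl-CoA 90 uM final); plates read kinetically for NADH fluorescence. HADH2 was His-tagged, E. coli-derived, 20 nM.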
An asterisk follows results filed as active; ? = inconclusive; [ ] = dose if it differs, or a comment. % is scaled to controls: 0 for no effect and ±100 for the full control effect; potency is read from the fitted curve at half-maximal effect.

SMILES	HSD17B inhib
COC(=O)C1=C(C)Nc2ncnn2C1c1ccc(OCc2ccccc2)cc1 (centres undefined)	15%
COC(=O)C1=C(C)OC(N)=C(C#N)C1c1cc(OC)ccc1OC (centres undefined)	70%[activator]
O=C(NC(c1ccccc1)c1ccccc1)N1CCN(CCO)CC1	2%
Cc1c(NC(=O)C2(C)CCCCC2)c(=O)n(-c2ccccc2)n1C	-2%
Nc1ccc(S(=O)(=O)N2CCCc3ccccc32)cc1	8%
O=C(Cc1cn2ccsc2n1)OCc1ccccc1	14%
COC(=O)COc1ccc(S(=O)(=O)N2CCOCC2)cc1	2%
CC(C)c1nc(SCc2ccccn2)c2c(=O)n(C)c(=O)n(C)c2n1	-3%
C=C[C@@]1(C)CC(=O)[C@@]2(O)[C@@]3(C)[C@@H](O)CCC(C)(C)[C@@H]3[C@H](O)[C@H](OC(C)=O)[C@@]2(C)O1	-14%
Cc1nc(SCC(C)C)[nH]c(=O)c1Cc1ccccc1	37%[activator]
COc1ccc(NS(=O)(=O)c2ccc(O)c(C(=O)OCC(=O)N3CC(C)OC(C)C3)c2)cc1 (centres undefined)	-19%
Nc1cccc(C(=O)Nc2ccco2)c1	-8%
N#Cc1nc(-c2ccccc2)oc1NCCN1CCCCC1	25µM*
O=C(N/N=C1/C[C@@H](O)[C@@H](O)[C@@H]2[C@H]3C(=O)N(c4ccc(F)cc4F)C(=O)[C@@H]3CC[C@@H]12)OCc1ccccc1	-5%[11.4 µM]
COc1cccc2c(C)c(C(=O)O)[nH]c12	-3%
CCOC(=O)c1cnc2ccc(C(=O)OC)cc2c1NCc1ccco1	-21%
Cc1cc(C)cc(NC(=O)CSc2nnc(-c3ccccc3Br)o2)c1	0%
COc1cccc(C(=O)NC2CCN(CC(=O)NCc3ccccc3OC)CC2)c1	5%
Cc1noc(C)c1C(=O)NC(C)c1ccc2c(c1)OCO2 (centres undefined)	-1%
CSc1cccc(NC(=O)CSc2ccccc2)c1	-27%
Cc1ccccc1CSc1nnc(-c2ccccn2)n1N	5%
CCC(C)[C@H](NC(=O)NCc1cccc(OC)c1)C(=O)O (some centres undefined)	9%
C=C(C)COc1ccc(-c2n[nH]c(C)c2-c2ccccc2)c(O)c1	?
CCOC(=O)c1cnc(SCC(=O)Nc2nnc(CC)s2)nc1N	5%
O=C(CCNS(=O)(=O)c1ccc(Br)cc1)NCc1ccc2c(c1)OCO2	5%

In the list so far, these contain four or more nitrogen atoms.
SMILES	HSD17B inhib
COC(=O)C1=C(C)Nc2ncnn2C1c1ccc(OCc2ccccc2)cc1 (centres undefined)	15%
CC(C)c1nc(SCc2ccccn2)c2c(=O)n(C)c(=O)n(C)c2n1	-3%
N#Cc1nc(-c2ccccc2)oc1NCCN1CCCCC1	25µM*
Cc1ccccc1CSc1nnc(-c2ccccn2)n1N	5%
CCOC(=O)c1cnc(SCC(=O)Nc2nnc(CC)s2)nc1N	5%

Single values from the list:
`COc1cccc2c(C)c(C(=O)O)[nH]c12` in HSD17B inhib = -3%
`O=C(NC(c1ccccc1)c1ccccc1)N1CCN(CCO)CC1` in HSD17B inhib = 2%
`Cc1ccccc1CSc1nnc(-c2ccccn2)n1N` in HSD17B inhib = 5%

(continued)
SMILES	HSD17B inhib
O=C1N=C(N2CCOCC2)S/C1=C1\C(=O)N(Cc2ccccc2)c2ccc(Br)cc21	3%
Cc1ccc(C)c(-n2c(SCC(=O)Nc3nnc(C)s3)nnc2-c2ccoc2C)c1	-2%
CCc1nc2ccccc2n1CC(=O)N1CCN(S(=O)(=O)c2cccc(C(F)(F)F)c2)CC1	-5%
CC(=O)Nc1ccc(SCC(=O)N(CCC#N)c2ccc(C)cc2)cc1	-27%
CSC1=NC2(CCCCC2)C2=C(CCCC2)N1	-7%
Oc1ccc(N2CCN(c3ncnc4sc5c(c34)CCC5)CC2)cc1	?
COc1cc(OC)nc(NC(=O)CN2CCN(c3ccc(F)cc3)CC2)n1	7%
Cc1ccc(NC(=O)NCCCN2CCOCC2)cc1	11%
NC(=O)c1ccc[n+]([C@@H]2O[C@H](COP(=O)([O-])OP(=O)(O)OC[C@H]3O[C@@H](n4cnc5c(N)ncnc54)[C@@H](O)[C@@H]3O)[C@@H](O)[C@@H]2O)c1	4%[25.6 µM]
Cc1cc(O)c(-c2cc(C(=O)NCc3ccc4c(c3)OCO4)[nH]n2)cc1C	8%
CC1Cn2c(nnc2-c2cc3ccccc3cc2O)S1 (centres undefined)	?
CCc1ccccc1S(=O)(=O)Cc1ccc(C(=O)NC(C)C)o1	-1%
Cc1ccc(N2CCN(c3ccc(C)cc3)C2c2ccncc2)cc1	-4%
CCOC(=O)c1c(NC(=O)CSc2n[nH]c(-c3ccco3)n2)sc(C)c1C	-10%
Cc1ccc(C(=O)CSc2nnc(-c3ccco3)o2)o1	-10%
O=C(CCNC(=O)Cn1cnc2ccccc2c1=O)NCC1COc2ccccc2O1 (centres undefined)	-7%
COc1ccc(C(=O)O)cc1S(=O)(=O)Nc1cccc(C)c1	15%
O=C(CSc1ccccc1C(=O)NCCCN1CCCC1=O)NCc1ccco1	?
COc1ccc(C2C(C(=O)NCc3ccccn3)c3ccccc3C(=O)N2C)cc1OC (centres undefined)	-7%
COc1ccc(Cl)cc1C(=O)Nc1ccc2c(c1)OCO2	30%[activator]
c1coc(CSCc2cn3cccnc3n2)c1	-27%
Cn1cnc2c(NCc3ccccc3)nc(NCCO)nc21	-8%
COc1ccc(C2C(C#N)=C(N)OC3=C2C(=O)CC(C)C3)c(OC)c1OC (centres undefined)	-4%
O=C(N1CCOCC1)N(Cc1ccccc1)c1ccccn1	7%
O=C1OCCC1Sc1ncnc2sc3c(c12)CCC3 (centres undefined)	105%[activator]

SMILES	HSD17B inhib
CCC1CCCCN1S(=O)(=O)c1ccc(C(=O)Nc2nnc(-c3ccccc3Cl)o2)cc1 (centres undefined)	-4%
Cn1c(SCC(=O)Nc2ccc3c(c2)oc2ccccc23)nnc1-c1ccccc1	?
Cn1c(SCc2cc(=O)n3cc(Br)ccc3n2)nnc1C1COc2ccccc2O1 (centres undefined)	-14%
Cc1cc(C)nc(N2CCCC(C(=O)Nc3ccc4nc(C)c(C)nc4c3)C2)n1 (centres undefined)	4%
CCCc1nc(-c2ccc(-c3ccc(F)cc3)cc2)no1	0%
CC1CCCN(C(=O)CSc2nnc(-c3cccnc3)n2C2CCCCC2)C1 (centres undefined)	2%
O=C(O)/C(=C\c1ccccc1)Cc1ccccc1	-2%[11.4 µM]
CCCCc1nc2c(=O)[nH]c3ccccc3c2o1	2%
CC(NC(=O)c1cc(-c2ccc(Br)cc2)on1)c1ccccc1 (centres undefined)	8%
CCCC1(C(=O)OCC)NC(c2ccc(N(C)C)cc2)C2C(=O)N(c3ccccc3)C(=O)C21 (centres undefined)	?
CN(Cc1ccccc1)C(=O)C1CCN(Cc2ccc(F)cc2)CC1	6%
CCOC(=O)C(C)c1nn(C)c(=O)c2ccccc12 (centres undefined)	3%
O=C1CSC(c2cn(-c3ccccc3)nc2-c2ccccc2)N1Cc1ccco1 (centres undefined)	-11%
COc1ccc(OC)c(-c2nnc(SCC(=O)N3CCCc4ccccc43)o2)c1	?
Cc1ccc(S(=O)(=O)N2CCN(C(=O)c3ccccc3)C2C(C)C)cc1 (centres undefined)	7%
O=C(c1cnccn1)N1CCC2(CC1)CN(C(c1ccccc1)c1ccccc1)C2	2%
CCOCCCNC(=O)C1CCN(S(=O)(=O)N2CCCCC2)CC1	4%
c1ccc(-c2ccc(N3CCCC4(CCNCC4)C3)cc2)cc1	32µM*
CC(C)Sc1nnc([C@H](C)NC(=O)OC(C)(C)C)o1	5%
Cn1c(=O)[nH]c(=O)c2c1ncn2CCN1CCCCC1	0%
CCOC(=O)c1cccc(NC(=O)CCc2nc(-c3ccccc3F)no2)c1	0%
O=C(Nc1cccnc1)C1CC(c2ccc(Cl)c(Cl)c2)=NO1 (centres undefined)	9%
COC(=O)c1ccc(CN2C(=O)c3ccccc3S2(=O)=O)cc1	-4%
Cc1cc(C)c2[nH]c(=O)c(C(c3nnnn3Cc3ccc4c(c3)OCO4)N3CCCCC3)cc2c1 (centres undefined)	8%
O=C(Nc1ccccc1)N(CCCN1CCOCC1)Cc1ccccc1F	2%

SMILES	HSD17B inhib
COc1ccc(OC)c2sc(N3CCN(c4ccccc4)CC3)nc12	-6%
O=C(Nc1ccccn1)c1cccc(S(=O)(=O)N2CCCCC2)c1	-6%
Nc1c(S(=O)(=O)c2ccccc2)nnn1-c1ccccc1	8%
CCn1c(SCC(=O)Nc2ccc(N3CCOCC3)c(Cl)c2)nnc1-c1ccc(N)cc1	0%
CCCC(=O)c1ccc(N2CCOCC2)c(F)c1	-4%
NC(=O)C1CCN(C(=O)c2cc(S(=O)(=O)N3CCOCC3)c(Cl)cc2Cl)CC1	7%
CCc1sc(NC(=O)CN2CCOCC2)nc1-c1ccccc1	9%
CC1(C)C2CCC1(CS(=O)(=O)N1CCCc3ccccc31)C(=O)C2 (centres undefined)	0%
CN(C)C(=O)c1ccc(-c2cncnc2N(C)Cc2ccco2)cc1	?
O=C(O)c1ccc(Cl)c(S(=O)(=O)Nc2ccccc2)c1	-4%
CN(C)c1ncc(C(=O)O)cn1	?
Cc1c(NC(=O)Nc2c(Cl)cccc2Cl)c(=O)n(-c2ccccc2)n1C	9%[11.4 µM]
Cc1ccc(S(=O)(=O)c2nc(C(C)(C)C)oc2N2CCOCC2)cc1	5%
CCOc1cc2[nH]c(=O)n(CCC(=O)NCCc3ccc(OC)c(OC)c3)c(=O)c2cc1OCC	-18%
CCc1c(C)nc2ncnn2c1N1CCC(C(=O)Nc2ccc(C)cc2)CC1	13%
CCN1CCCC1Cn1c(-c2ccccc2)nc2c(NCc3ccccc3)nc(C)nc21 (centres undefined)	?
O=C(Nc1n[nH]c(C2CCCCC2)n1)C1CCCCC1	5%
CCOC(=O)c1cnc(SCc2nc(N)nc(Nc3ccccc3)n2)nc1N	-20%
Cc1cc(C)n(-c2ccc(C(=O)NC(C)C)cc2)n1	2%
CC(=O)c1cccc(NC(=O)C2CCCN(S(=O)(=O)c3ccccc3)C2)c1 (centres undefined)	8%
Oc1ccccc1-c1nnc(-c2ccc(C(F)(F)F)cc2)o1	32µM*
O=C(CSc1nnc(SCc2ccc(Cl)cc2)s1)N1CCOCC1	5%
COc1ncnc2sc(-c3ccccc3)cc12	-16%
O=C(CSc1nnc(Cn2c(=O)sc3ccccc32)n1-c1ccccc1)N1CCCCCC1	-5%
CC1(C)CC(=O)C2=C(C1)NC(=O)CC2c1cccc(F)c1 (centres undefined)	3%

SMILES	HSD17B inhib
Cc1c(C(=O)O)sc(=S)n1CCOc1ccccc1	-4%
O=C(CSc1nc2ccccc2n1CC(=O)N1CCCC1)Nc1ccc2c(c1)OCO2	-2%
Cc1ccc(C(C)C)c(OCC(=O)N2CCOCC2)c1	2%
COc1ccccc1-c1nc(NCc2cnc(C)cn2)c2ccccc2n1	?
Cc1ccc(-n2c(C)cc(C)c(C#N)c2=O)cc1Cl	-19%
Cc1cc(=O)[nH]c(-n2nc(C)cc2C)n1	8%
C=CCc1ccccc1OCC(O)CN1CCN(c2ccccc2F)CC1 (centres undefined)	-7%
O=C(c1cccnc1)N1C2C=CC(C2)C1(C(F)(F)F)C(F)(F)F (centres undefined)	-6%
COC(=O)c1cn(C)c2ccc(S(=O)(=O)N3CCCC3)cc2c1=O	5%
Cc1ccc(OCCSc2nnc(-c3ccncc3)n2C)cc1	2%
Cc1ccccc1-c1ccc2ncnc(N3CCN(C)CC3)c2c1	4%
COc1ccc(C(=O)Nc2cc3c(cc2C#N)OCO3)cc1S(=O)(=O)N1CCN(C)CC1	2%
CC1=CC(C)(C)C(C(=O)O)C(C(=O)O)C1 (centres undefined)	2%
COc1cccc(CN(Cc2cccnc2)S(=O)(=O)c2ccc(-n3cnnn3)c(C)c2)c1OC	10%
COc1ccc(C(=O)N2CCC3(CC2)CN(c2cccc(-c4ccccc4)c2)C3)cc1	?
COc1ccc(Cl)c(S(=O)(=O)N2CCCC2)c1	11%
Cc1cc(=O)n2nc(N3CCCC(C(=O)N4CCN(C)CC4)C3)sc2n1 (centres undefined)	9%
O=C(O)CSc1nc(-c2ccccc2)nc2c1oc1ccccc12	4%
Cc1ccc2cc(C(c3nnnn3C3CCCC3)N(Cc3ccccc3)Cc3ccco3)c(=O)[nH]c2c1 (centres undefined)	?
CC(C#N)Sc1ncnc2sc3c(c12)CCC3 (centres undefined)	-3%
CCOC(=O)CCC(NC(=O)c1ccc(NCN2C(=O)CCC2=O)cc1)C(=O)OCC (centres undefined)	4%
Cc1ccccc1OCC(=O)NCCC(=O)O	-8%
O=C(Nc1cccnc1)C1CCCN1S(=O)(=O)c1ccc(Cl)c(Cl)c1 (centres undefined)	7%
O=C(c1ccncc1)N1CCC[C@@]2(CCN(Cc3ccccc3)C2)C1	-6%
O=C(COC(=O)c1cnccn1)Nc1ccc2c(c1)OCO2	2%
COc1cc(OC)c(C(=O)Oc2ccc3c(c2)OCO3)cc1OC	9%
COc1ccc(CCn2c(=S)[nH]c3cc(C(=O)NCc4ccco4)ccc3c2=O)cc1OC	0%

Reformatted field by field: entries from further up.
COc1ccc(Cl)c(S(=O)(=O)N2CCCC2)c1
- HSD17B inhib: 11%
CC(C#N)Sc1ncnc2sc3c(c12)CCC3 (centres undefined)
- HSD17B inhib: -3%

From PubChem

An excerpt. The share of hits here may be higher or lower than overall.
